High-throughput results as filed in PubChem.
Bfl-1 A1 inh – inhibitors of the anti-apoptotic protein A1, read as caspase activation. caspase activation, % (no concentration beside the values). 330,000 tested, 0.066% active. AID 2462. MEF A1-2A-BIM cells, Caspase-Glo 3/7 luminescence, 3 h; percent of clofoctol response, vehicle zero;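 active = over half of replicate activation scores above 10%, or exactly half above 10 with the replicate mean above 10; inconclusive = replicate mean below 10 yet half the replicates above 10; inactive = over half of replicates below 10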;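 also: wells of about 30 µL received 50 nL stock; many hits fall short of the cut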
UCH37 DUB inh – blocks the human deubiquitinase UCH37; Q9Y5K5; purified proteasome/UCH37, Ub-AMC cleavage fluorescence; inhibition, % (concentration not given with the values); 330,000 tested, 0.33% active; AID 588478;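 active = mean of two replicates above 20%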;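 also: 0% = compound-free wells with enzyme and 100% = wells lacking proteasome; stock transfer was 100 nL into about 20 µL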
Target sequence (Q9Y5K5 whole entry, looked up): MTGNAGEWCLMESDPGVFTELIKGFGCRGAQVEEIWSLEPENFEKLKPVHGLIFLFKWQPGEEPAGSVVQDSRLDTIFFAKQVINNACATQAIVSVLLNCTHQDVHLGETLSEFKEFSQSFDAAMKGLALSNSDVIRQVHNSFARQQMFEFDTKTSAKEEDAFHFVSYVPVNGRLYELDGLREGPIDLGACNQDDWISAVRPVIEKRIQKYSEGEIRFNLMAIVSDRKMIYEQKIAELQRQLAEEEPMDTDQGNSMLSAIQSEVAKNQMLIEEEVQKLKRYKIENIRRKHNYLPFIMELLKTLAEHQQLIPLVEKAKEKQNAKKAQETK
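Assay system: Proteasome-bound UCH37. Buffer or medium: pH 7.4 Tris-HCl (50 mM) with ovalbumin, ATP-MgCl2, DTT. Incubation: 30 min preincubation with enzyme, 25 min cleavage at room temperature. Measured by: fluorescence, ex 355 nm, em 460 nm. Read-out basis: percent inhibition. Control set: wells without proteasome as full block, compound-free enzyme plus substrate as uninhibited.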
LANA-H2B inh – blocks KSHV LANA binding to histone H2A/H2B | inhibition, % (test concentration not listed) | Q9QR71 | cell-free LANA-H2A/H2B peptide, fluorescence polarization | 320,000 tested, 0.6% active | AID 2629; in the data active = inhibition mostly above about 10%, no sharp cut-off; inactive = mostly below about 6.7%;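 also: stock transfer was 7.5 nL into about 10 µL; 0% = median of vehicle wells and 100% = median of positive control wells; one replicate is shown; the record names a cut of 25% in any replicate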
Beta cell apopt – blocks beta cell apoptosis; protection from apoptosis, % (concentration not given with the values); AID 435005; INS-1E cytokine-induced death, ATP luminescence, 48 h; percent of positive-control rescue, neutral wells zero; 300,000 tested, 0.8% active;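 active = all replicates at 75% or more, or half of them and the mean; inconclusive = half reach 75% but not the mean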;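 also: 0% = cytokine-treated negative control wells and 100% = positive control rescue; higher means more ATP so stronger rescue from cytokine killing; wells of about 40 µL received 100 nL stock; the first replicate is given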
Calb FLC – C. albicans growth modulation with fluconazole. C. albicans CaCi-2 (fluconazole-resistant clinical isolate) + fluconazole, Alamar Blue growth, 48 h. growth inhibition, % (concentration not given with the values). 300,000 tested, 0.57% active. AID 1979;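 active = most replicates above 75%; inconclusive = exactly half above 75%; inactive = most below 75%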;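 also: all wells also contain fluconazole at 8 µg/ml as a sub-toxic cotreatment; 0% = median of DMSO wells and 100% = median of geldanamycin control wells; wells of about 8 µL received 7.5 nL stock; the first replicate is given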
RanGTP-Impb inh – disruptors of Ran-importin-beta complex formation – biochemical, FRET, CFP-Ran, YFP-importin-beta, homogeneous, primary screen; inhibition, % (test concentration not listed); cell-free CFP-Ran/YFP-importin-beta FRET ratio; 300,000 tested, 1.1% active;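 active = most replicates above 15%; inconclusive = exactly half above 15%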;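 also: 0% = DMSO wells and 100% = Ran loaded with GDP instead of GTP; wells of about 40 µL received 100 nL stock; the first replicate is given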
T cruzi repl – T. cruzi replication inhibition | inhibition, % (test concentration not listed) | 300,000 tested, 1.4% active | T. cruzi beta-gal in NIH3T3, luminescence, 90 h;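 active = mean inhibition across valid replicates above about 55%, limit read from the data; inconclusive = mean below that limit but half or more replicates reach it; inactive = mean below it, under half of replicates reach it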;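 also: signal also drops with host cell toxicity which is not excluded here; 0% = plate median of DMSO wells and 100% = zero luminescence signal; higher percent means less beta-gal luminescence so fewer parasites; stock transfer was 50 nL into about 50 µL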
Beta2AR agonist – agonists of human beta-2 adrenergic receptor inducing internalization; AID 504454; 340,000 tested, 0.43% active; P07550; response, % (no concentration beside the values); Am2.2-beta2AR cells, FAP receptor internalization, flow cytometry; reference of the scale not given here;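 active = response above a set limit, near 3 SD of response in nonfluorescent compounds, cut at about 42% in these data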;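 also: stock transfer was 100 nL into about 11 µL; a reference agonist was the positive control; negative values mostly stem from fluorescent compounds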
Target sequence (P07550 whole entry, looked up): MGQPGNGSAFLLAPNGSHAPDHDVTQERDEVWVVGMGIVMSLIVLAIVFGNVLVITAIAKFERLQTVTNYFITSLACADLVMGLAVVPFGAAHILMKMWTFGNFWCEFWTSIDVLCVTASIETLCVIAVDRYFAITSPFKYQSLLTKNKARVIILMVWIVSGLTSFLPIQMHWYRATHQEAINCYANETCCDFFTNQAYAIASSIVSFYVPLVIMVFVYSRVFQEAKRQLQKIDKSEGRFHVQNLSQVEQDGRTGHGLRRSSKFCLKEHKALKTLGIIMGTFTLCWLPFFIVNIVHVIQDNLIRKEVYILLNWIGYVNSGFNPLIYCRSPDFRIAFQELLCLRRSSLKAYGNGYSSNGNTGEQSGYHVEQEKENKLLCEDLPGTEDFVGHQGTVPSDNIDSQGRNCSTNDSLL
* = called active by the depositor; u = inconclusive; x = no result given.

SMILES | Bfl-1 A1 inh | UCH37 DUB inh | LANA-H2B inh | Beta cell apopt | Calb FLC | RanGTP-Impb inh | T cruzi repl | Beta2AR agonist
COc1cc(CN2CCCC(CO)(Cc3cccc(Cl)c3)C2)cc2c1OCO2 (stereo not given) | 0.6 | 1.8 | -5.3 | 15.2 | -11.1 | u | 55.5* | 3.6
COc1ccc(/C=C/C(=O)c2ccc3c(c2)OCO3)cc1OC | 1.4 | 4.7 | -6.0 | -10.0 | x | x | x | 22.1
Cc1cnc(CNC(=O)c2ccc(OC3CCN(C(=O)C4CC4)CC3)cc2)cn1 | 0.0 | 3.9 | 4.2 | -1.9 | -10.1 | 0.0 | -3.3 | -2.7
N#Cc1cc(S(=O)(=O)c2ccc(F)cc2)c(N)[nH]c1=O | -0.2 | -0.9 | -2.4 | -14.3 | 18.9 | 3.2 | -2.1 | -8.9
O=C(CSc1nc2c(c(=O)n1-c1ccc(Br)cc1)SCC2)NCc1ccco1 | -0.1 | 3.3 | 4.9 | -1.6 | 10.5 | 7.1 | -8.2 | 9.6
COc1ccc(S(=O)(=O)Nc2ccc(S(=O)(=O)Nc3nc(C)cc(C)n3)cc2)cc1OC | -0.1 | 4.1 | 1.4 | -3.5 | -1.4 | -0.2 | -1.3 | 0.5
Cc1ccccc1Cn1nnc(C(=O)Nc2cccc(C)c2C)c1N | 0.3 | x | -2.5 | 4.4 | 28.6 | -4.5 | -14.1 | -4.1
C=CCn1c(=S)[nH]c2sc3c(c2c1=O)CCCC3 | 0.1 | 3.4 | 1.0 | -6.2 | 48.3 | 3.2 | 1.0 | -5.1
COc1ccc(C(O)P(=O)(OCCC(C)C)c2ccc(N(C)C)cc2)cc1 (stereo not given) | -0.3 | 1.9 | -3.1 | -2.5 | 2.3 | 0.4 | -3.4 | -3.0
CN(C)C(CNC(=O)c1ccc(C2SCCS2)cc1)c1ccccc1 (stereo not given) | -0.3 | -0.2 | -8.7 | 1.6 | -5.2 | 2.4 | -6.1 | 0.4
C/C=C/c1ccc(OCCCNCC(C)O)c(OC)c1 (stereo not given) | 0.7 | 5.5 | -4.0 | -1.7 | -0.8 | -4.0 | 4.2 | 6.2
Fc1ccccc1NC(=S)NCc1ccc(Cl)cc1 | 0.0 | 1.5 | 3.5 | -11.2 | -7.4 | 2.6 | 2.5 | 5.7
C=CCn1c(C)cc(C2=NNC(=NCc3ccccc3)SC2)c1C | -0.1 | 6.3 | -4.3 | 4.7 | -1.4 | -1.2 | 29.0 | -4.4
O=[N+]([O-])c1ccccc1/C=N\N1CCN(c2ccccc2)CC1 | -2.2 | x | -5.0 | 2.8 | 6.1 | x | 1.4 | 2.5
Cc1nc(SCC(=O)NC2CCS(=O)(=O)C2)c(C#N)c(C)c1C (stereo not given) | 0.6 | 2.0 | 8.6 | -0.9 | x | x | x | -0.6
Cc1cc(C(=O)N/N=C/c2cc(N=Nc3ccccc3)ccc2O)n[nH]1 | -1.4 | x | -1.5 | 83.3* | -0.9 | 2.8 | 45.4 | -3.0
O=C(Nn1c(C2CCCCC2)nc2ccccc2c1=O)c1cc(Cl)ccc1[N+](=O)[O-] | -0.1 | 7.4 | 2.9 | 10.9 | -2.6 | 0.4 | -2.3 | -11.9
CCOc1ccccc1NC(=O)Cn1c(=O)oc2ccccc21 | -0.4 | -0.8 | -5.3 | -4.5 | -2.1 | -2.6 | -12.1 | 8.1
Cc1ccc(C(=O)O/N=C\c2ccc(N3CCCCC3)c([N+](=O)[O-])c2)cc1 | 0.0 | x | -6.0 | 0.2 | 2.0 | -6.6 | -0.7 | 0.7
O=C(COC(=O)CCCNC(=O)c1ccc(Cl)cc1)Nc1cc(Cl)ccc1Cl | 0.0 | -0.5 | -0.6 | -7.0 | -5.4 | u | -7.6 | -5.7
COc1ccc(CCNS(=O)(=O)c2cc3c(cc2C)NC(=O)CO3)cc1OC | 0.1 | 3.4 | 0.9 | 0.0 | -2.3 | 2.0 | 2.2 | -0.2
C/C=C(\C)C(=O)N1CC2(CC(c3cccc(NC(=O)COc4ccc(Cl)cc4)c3)=NO2)C[C@@H]1C(N)=O (stereo not given in full) | 0.1 | 1.0 | -0.4 | 0.6 | -5.7 | u | 5.4 | 1.8
CC(=O)c1ccc(NC(=O)COC(=O)c2c3c(nc4ccccc24)/C(=C\c2cccs2)CCC3)cc1 | 0.0 | -70.2 | 1.5 | 2.8 | -5.0 | 6.6 | 43.0 | 6.9
Cc1ccccc1Nc1nc(-c2sc(NC(=O)c3ccco3)nc2C)cs1 | -4.0 | -1.5 | 1.2 | 9.9 | 0.1 | 0.4 | -17.5 | 0.9
CC(NC(=O)COC(=O)C1(C)CC1(Cl)Cl)c1ccccc1 (stereo not given) | -1.8 | 4.9 | 7.6 | 4.1 | x | x | x | 20.6
Cc1nn2c(-c3ccccn3)ccnc2c1Cl | -1.3 | 7.0 | x | -1.3 | 12.7 | -1.8 | -4.1 | -6.4
COc1ccc(OCCC(=O)OCC(=O)NCc2ccccc2OC)cc1 | 0.2 | -1.2 | -1.3 | -7.2 | -3.6 | -4.6 | -10.4 | -3.4
CCC(C(=O)Nc1ccc(OC)c(Cl)c1)c1ccccc1 (stereo not given) | -0.4 | 1.3 | x | -3.2 | 0.2 | -2.5 | 15.8 | 2.0
CCCCC(=O)Nc1nnc(C)s1 | 0.4 | -2.1 | 1.3 | -3.8 | -18.8 | 0.0 | -2.6 | 4.3
COc1ccc(CCNS(=O)(=O)c2cn(C)c(=O)n(C)c2=O)cc1OC | -0.1 | 3.7 | 3.7 | 1.4 | 1.0 | 2.1 | -0.4 | 0.4
CCCC[C@@H]1CNCCN1CCc1cccc(F)c1 | -1.4 | 2.5 | -3.8 | -0.7 | 3.9 | 8.4 | -3.0 | 10.5
COc1ccc(NC(=O)CC2SC(N)=NC2=O)c([N+](=O)[O-])c1 (stereo not given) | -0.2 | 4.4 | 6.7 | -3.8 | -7.9 | 0.4 | 1.5 | 0.1
COCc1cc(C)nc(SCC(=O)Nc2ccc3c(c2)OCO3)c1C#N | 3.0 | 2.7 | -8.9 | -2.2 | -1.7 | 0.6 | 13.5 | 2.6
CC(=O)NCC(=O)N(Cc1ccco1)C1(C(=O)NC2CCCCC2)CCCCC1 | 0.2 | -0.7 | -3.7 | -1.2 | -6.6 | -0.5 | 5.4 | 1.5
Cc1nc(-c2cccnc2)sc1C(=O)N/N=C/c1ccccc1Cl | -0.1 | x | 1.4 | 10.3 | -0.1 | -0.1 | 0.0 | 42.2*
COCc1n[nH]c(=S)n1-c1cccc2ccccc12 | 1.5 | 2.4 | -3.4 | 0.2 | x | x | x | -1.9
Cc1ccsc1C(=O)OCC(=O)NCc1ccco1 | -0.5 | 1.4 | 7.4 | -3.5 | -0.8 | -0.3 | 5.0 | -3.4
COc1cc2c(cc1OC)-c1cc(NC3CCCC3)nc(=O)n1CC2 | 0.2 | -48.2 | 6.0 | 0.6 | -27.2 | 3.4 | -14.2 | 2.0
Brc1ccc2nc(CSc3ncn[nH]3)cn2c1 | 0.6 | -0.8 | 2.9 | -7.0 | x | u | 3.0 | -0.5
OCCn1c(-c2ccc3c(c2)OCO3)csc1=Nc1ccccc1 | 0.0 | 6.0 | -4.0 | 4.5 | -8.2 | 8.9 | 20.1 | -6.6
COc1ccc(C2=Nn3c(nnc3C3CCCCC3)SC2)cc1OC | 0.1 | 2.6 | 2.6 | -9.4 | 2.5 | 2.2 | 7.2 | 9.0
O=C(Cn1c(=O)oc2ccccc21)Nc1n[nH]c(=S)s1 | 1.0 | 0.1 | 4.5 | -4.8 | -1.0 | 0.4 | -7.6 | 12.5
COc1ccccc1OCC(=O)NCCSCc1ccccc1Cl | 0.4 | 2.9 | 1.3 | -15.7 | -4.5 | u | 18.1 | -6.8
Cc1c(NC(=O)/C(C#N)=C/c2ccc(-c3cccc(Cl)c3)o2)c(=O)n(-c2ccccc2)n1C | -2.2 | 9.6 | 3.6 | -4.5 | -6.6 | 4.3 | 23.0 | 6.2
CCOC(=O)C1=C(N)Oc2cc(O)ccc2C1c1ccc(Br)cc1 (stereo not given) | 0.6 | 4.1 | -10.1 | -1.2 | 43.0 | 3.5 | 3.2 | 0.6
O=C(CSc1nnc(-c2ccccc2)n1-c1ccccc1)NCc1ccco1 | 1.9 | 1.1 | -4.8 | -5.1 | 9.5 | 6.8 | -2.8 | 0.5
CC(NC(=O)c1ccccc1NS(=O)(=O)c1ccc(CCC(=O)O)cc1)c1ccccc1 (stereo not given) | 1.7 | -7.5 | -1.6 | x | -5.0 | 0.9 | -4.4 | -6.3
O=C1CN(C(=O)COC(=O)CCC(=O)c2ccc(Cl)cc2)c2ccccc2N1 | -0.3 | 5.3 | -0.2 | -2.6 | x | x | x | -4.7
O=C(c1n[nH]c(=O)c2ccccc12)N1CCN(c2ccc(F)cc2)CC1 | -0.3 | 0.6 | 1.7 | -1.5 | 8.1 | 2.2 | -3.3 | 4.3
CCOC(=O)C1CCN(C(=O)COC(=O)CCOc2ccc(C)cc2)CC1 | 1.3 | -0.3 | 0.4 | 1.1 | -5.0 | -0.7 | -2.1 | -0.3
CC(C)Cn1c(N)c(C(=O)COC(=O)CCNS(=O)(=O)c2ccccc2)c(=O)n(C)c1=O | -0.2 | 2.8 | -4.4 | 2.3 | -6.2 | u | -18.4 | 2.3
N=c1ncn(CC(O)CO)c2nc(N3CCOCC3)[nH]c12 (stereo not given) | -0.2 | 6.7 | 0.8 | -2.7 | -6.0 | -1.4 | -16.9 | -3.0
O=C(Nc1ccc(-c2csc(Nc3cccc(C(F)(F)F)c3)n2)cc1)c1ccccc1 | -1.3 | x | -2.5 | 13.6 | -10.0 | 2.7 | 78.6* | 4.5
O=C(c1cccc(F)c1)N1CCN(Cc2ccc3c(c2)OCO3)CC1 | 0.2 | 3.6 | -9.6 | -2.2 | -6.2 | 0.7 | 11.0 | -0.1
COC(=O)Nc1ccc(S(=O)(=O)N2CCCC(C(=O)N3CC(C)OC(C)C3)C2)cc1 (stereo not given) | -0.1 | 2.2 | 0.7 | -6.8 | 0.6 | 1.4 | -3.6 | -1.3
Nc1cc(C(=O)O)ccc1N1CCCCCC1 | -0.4 | -0.4 | 1.3 | 1.8 | 10.1 | 0.2 | 0.0 | -0.1
O=C(COC(=O)/C=C/c1ccco1)NC1CCCCC1 | -0.5 | 3.5 | 0.6 | 0.3 | x | x | x | -5.3
COc1ccc(C(CNC(=O)C(C)(C)Oc2ccc(Cl)cc2)N2CCCCC2)cc1 (stereo not given) | 1.8 | 0.9 | -6.2 | 4.6 | 22.2 | 2.7 | 8.0 | -0.7
Cc1cccc(C(=O)NCCC(=O)Nc2ccc(F)c([N+](=O)[O-])c2)c1 | 2.0 | 3.7 | 2.7 | -0.8 | -2.4 | -5.3 | 2.7 | 15.0
